HCMV UL50-53 inh – cytomegalovirus nuclear egress complex inhibition; inhibition, % (test concentration not listed); 0.15% of 190,000 active; HTRF UL50-UL53 interaction, normalized percent inhibition;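 active = both replicates at 50% or more, plus weaker picks with an unusually low signal ratio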;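 also: stock transfer was 100 nL into about 20 µL; 0% = negative control wells and 100% = wells with untagged competitor protein; inactives centre near -12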
Sa growth inh – blocks Staphylococcus aureus growth; S. aureus RN4220 growth, OD600, 20 h, 42 °C; active compounds read low; relative growth, % (no concentration beside the values); 0.53% of 170,000 active; AID 720641;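 active = growth at 42 °C up to 50% and 20 or more points under that at 30 °C, or under 10% at both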;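 also: 300 nL library stock went into each well; scaled to the means of positive and negative controls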
GIV-Gai inh – inhibitors of GIV GBA-motif binding to rat Galpha-i3; P08753; Galpha-i3/FITC-GIV peptide fluorescence polarization, 90 min; active compounds read low; scaled: aluminum fluoride 0%, vehicle 100%; AID 1224905; percent of control (FP), % (concentration not given with the values); 0.42% of 210,000 active;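 active = replicate mean at 85% of control or lower, very high polarization wells dropped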;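 also: wells of about 15 µL received 100 nL stock; the first replicate is given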
Target sequence (P08753 whole entry, looked up): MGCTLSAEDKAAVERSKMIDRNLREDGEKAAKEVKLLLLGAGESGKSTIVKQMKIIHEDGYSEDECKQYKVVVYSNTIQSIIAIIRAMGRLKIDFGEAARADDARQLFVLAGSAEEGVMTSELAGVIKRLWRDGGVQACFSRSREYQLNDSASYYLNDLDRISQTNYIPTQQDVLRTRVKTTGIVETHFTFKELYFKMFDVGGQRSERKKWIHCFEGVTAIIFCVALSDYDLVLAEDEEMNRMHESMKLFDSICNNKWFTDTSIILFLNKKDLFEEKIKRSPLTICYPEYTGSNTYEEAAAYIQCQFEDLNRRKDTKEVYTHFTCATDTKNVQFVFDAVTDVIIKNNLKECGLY
Sa growth inh second temp – recorded beside Sa growth inh, whose call it bears; relative growth, %; measured here: growth at 30 °C;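 optical density after 20 h as mean of two plates; 100% = untreated growth and lower means inhibition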
Starred values were filed as active, the others as inactive; · = no result given.

SMILES	HCMV UL50-53 inh	Sa growth inh	Sa growth inh second temp	GIV-Gai inh
Cc1csc2nc(CSc3nc4ccc([N+](=O)[O-])cc4[nH]3)cn12	-9.6	·	·	108.8
CCOC(=O)c1cc(C)n(CC2CCC(C(=O)NCc3ccc4c(c3)OCO4)CC2)c1C (stereo not drawn)	-2.2	·	·	104.6
CCC(Sc1nc2ncccc2o1)C(=O)Nc1cc(OC)ccc1OC (stereo not drawn)	-21.9	107.3	88.4	102.0
CCOc1ccccc1CNC(=O)CCCn1ncn2c(cc3occc32)c1=O	-23.9	104.9	83.9	103.0
CC1CCC2(CC1)NC(=O)N(Cc1ccccc1)C2=O (stereo not drawn)	-19.2	94.0	96.7	·
Cc1ccc(CN2C(=O)C3(OCCCO3)c3ccccc32)cc1	5.6	111.1	97.6	106.8
CCc1cccc(NC(=O)CCNS(=O)(=O)c2ccc3c(c2)oc(=O)n3C)c1	-0.1	106.2	90.9	101.6
COCCN=C1Sc2nc3c(C)cccc3cc2CN1Cc1ccco1	-21.8	90.9	72.4	99.8
CCc1ccc(NCC2C(Oc3ccc(Cl)cc3)C(=O)N2c2ccccc2C)cc1 (stereo not drawn)	-29.8	·	·	97.6
CCn1c(=O)cc(SCC(=O)NCCc2ccc(C)cc2)c2ccccc21	·	109.8	89.5	98.6

Seven compounds out of the list, arranged by length of the SMILES, largest number first.
SMILES	HCMV UL50-53 inh	Sa growth inh	Sa growth inh second temp	GIV-Gai inh
CCOC(=O)c1cc(C)n(CC2CCC(C(=O)NCc3ccc4c(c3)OCO4)CC2)c1C (stereo not drawn)	-2.2	·	·	104.6
CCc1cccc(NC(=O)CCNS(=O)(=O)c2ccc3c(c2)oc(=O)n3C)c1	-0.1	106.2	90.9	101.6
Cc1csc2nc(CSc3nc4ccc([N+](=O)[O-])cc4[nH]3)cn12	-9.6	·	·	108.8
CCn1c(=O)cc(SCC(=O)NCCc2ccc(C)cc2)c2ccccc21	·	109.8	89.5	98.6
CCC(Sc1nc2ncccc2o1)C(=O)Nc1cc(OC)ccc1OC (stereo not drawn)	-21.9	107.3	88.4	102.0
Cc1ccc(CN2C(=O)C3(OCCCO3)c3ccccc32)cc1	5.6	111.1	97.6	106.8
CC1CCC2(CC1)NC(=O)N(Cc1ccccc1)C2=O (stereo not drawn)	-19.2	94.0	96.7	·

More structures
SMILES	HCMV UL50-53 inh	Sa growth inh	Sa growth inh second temp	GIV-Gai inh
Cc1ccc(NC(=O)COC(=O)C2CCCN2C2=NS(=O)(=O)c3ccccc32)cc1C (stereo not drawn)	5.5	110.0	85.2	·
CC1=C(C(=O)Nc2cccc(F)c2)C2(CCCCC2)OC1=O	·	94.1	91.5	102.9
CC1Cc2ccccc2N1C(=O)c1ccnc(C(C)(C)C)c1 (stereo not drawn)	-0.9	73.9	106.2	103.2
O=C(Cc1ccc2c(c1)OCCO2)N/N=C/c1ccc(-c2ccc(F)cc2)o1	4.6	88.5	100.3	·
CC1=C(c2ccc(F)cc2)S(=O)(=O)NC1=NCc1ccccc1F	·	129.9	88.8	103.0
CCCn1c(=O)c2sccc2n2c(CCC(=O)NCCC(C)C)nnc12	-25.0	·	·	96.6
CSC(=S)NN=C1CCCC1	3.0	79.8	56.6	·
Cc1ccc(C(=O)c2c(N)sc3c2CCC3)cc1	-55.7	125.0	71.4	·
CC(C)(C)CC(=O)NCc1cn2ccsc2n1	·	98.9	81.1	99.4
CN(CCOC(=O)c1c(F)cccc1Cl)c1ccc(C#N)cn1	-4.2	92.4	107.9	97.6
Cc1ccc(-c2nonc2NC(=O)COc2ccc(C(C)(C)C)cc2)cc1C	9.5	·	·	99.6
COc1cc(CC(=O)OCC(=O)N(C)C2CCCCC2)cc(OC)c1OC	-0.7	110.1	101.0	·
CCc1nn2c(=O)cc(COC(=O)c3cccs3)nc2s1	·	117.3	91.9	105.7
CC1CN(S(=O)(=O)c2ccc(N3C(=O)CC4(CCCC4)C3=O)c(Cl)c2)CC(C)O1 (stereo not drawn)	-5.0	130.2	86.8	105.3
CSc1n[nH]c(N)c1S(=O)(=O)c1ccccc1	0.7	95.8	92.3	109.4
CCOC(=O)c1cnc2cc(-c3ccc(Cl)cc3)nn2c1-c1ccccc1	-9.8	104.7	94.3	105.0
CC1CCC(NC(=O)CN2C(=O)CSc3ncccc32)CC1 (stereo not drawn)	·	114.7	89.2	108.8
O=C(CS(=O)(=O)c1cn(Cc2ccc(Cl)cc2)c2ccccc12)N1CCc2ccccc21	·	102.2	79.6	100.2
COC(=O)/C(=C(/O)CSc1nnc(-c2ccc(C)cc2)o1)c1nc2ccccc2[nH]1	-29.5	98.5	79.0	·
O=C(O)CCC(=O)N1CCc2cc(S(=O)(=O)NCc3ccccc3)ccc21	-1.6	110.6	89.2	102.3
Cc1nn(Cc2ccccc2Cl)c2sc(C(=O)NCCN3CCOCC3)cc12	-29.1	88.8	97.7	·
CC1=C(C(=O)NCc2cccc(Cl)c2)C2(CCCCCC2)OC1=O	·	86.1	97.8	94.7
COc1ccccc1C1C2=C(CCCC2=O)Nc2ccc3ncccc3c21 (stereo not drawn)	-19.5	101.2	83.5	·
O=C(CCSc1ccccc1C(=O)O)Nc1ccc(F)cc1	-15.5	115.3	90.3	·
CCOC(=O)c1cccc(NC(=O)Cn2c(=O)oc3cc(S(=O)(=O)N4CCCC4)ccc32)c1	-0.5	96.8	69.8	·
Cc1ccc(-n2c(=O)c3cccnc3n2CC(=O)NCc2ccc(Cl)cc2)cc1	-3.7	86.4	74.6	102.0
Cc1ccc(Cl)cc1NC(=O)CSCc1cnn(-c2ccccc2)c1-n1cccc1	-2.9	101.3	86.3	106.5
COc1ccc(C(=O)OCC(=O)n2c(C)c(C)c3ccccc32)cc1	·	100.1	95.1	94.9
Cc1noc(C)c1C(=O)Sc1cccc(C(F)(F)F)c1	-1.0	90.3	28.3	96.5
Cc1nc(SCc2cc(=O)n3c(C)cccc3n2)n(C2CCCC2)c1C	-57.0	83.6	70.3	·

Next part; the last two above are carried over.
SMILES	HCMV UL50-53 inh	Sa growth inh	Sa growth inh second temp	GIV-Gai inh
Cc1noc(C)c1C(=O)Sc1cccc(C(F)(F)F)c1	-1.0	90.3	28.3	96.5
Cc1nc(SCc2cc(=O)n3c(C)cccc3n2)n(C2CCCC2)c1C	-57.0	83.6	70.3	·
CCc1ccc(-n2cnc3cc(C(=O)NCc4ccc(C)cc4)ccc32)cc1	·	105.0	90.8	102.9
COc1ccc(OC)c(Nc2cc(C(=O)NCc3ccccc3)c3ccccc3n2)c1	22.6	111.5	101.7	106.4
NS(=O)(=O)c1ccc(NC(=O)CC(=O)Nc2ccc(S(N)(=O)=O)cc2)cc1	-36.3	78.1	83.6	·
CC(NC(=O)c1ccc(Nc2nc3ccccc3n3nnnc23)cc1)c1ccccc1 (stereo not drawn)	-5.7	112.5	90.7	127.6
C=CCNc1ncnc2ccc(Br)cc12	-19.4	·	·	108.1
COc1ccccc1CCNC(=O)c1cccn1-c1nnc(N2CCCCC2)s1	·	92.6	90.7	98.3
CCCCNC(=O)C1(NC(=O)Nc2ccccc2)CCCCC1	-27.7	98.3	93.2	97.9
Cn1cccc1C(=S)N=P(C1CCCCC1)(N1CCOCC1)N1CCOCC1	-5.6	110.0	91.1	·
O=C(c1n[nH]c(=O)c2ccccc12)N1CCC(n2c(=O)[nH]c3ccccc32)CC1	-33.8	89.8	88.4	·
COc1ccc(NC(=O)c2cn(-c3ccc(-c4noc(C)n4)cc3)nc2C)c(OC)c1	-21.9	·	·	105.1
COc1ccccc1NC(=O)CSc1ncc(CO)n1Cc1ccc(F)cc1	·	116.1	101.7	99.5
Cn1c(-c2ccc(NC(=O)c3ccccc3)cc2)n[nH]c1=S	-40.5	89.5	94.5	103.8
COc1ccc(-c2cc(C(=O)O)n(Cc3ccccc3)n2)cc1	-21.0	102.2	111.9	104.3
COc1ccc2oc(=O)c(C(=O)NCCc3c(C)[nH]c4c(Cl)cccc34)cc2c1	-5.9	112.9	95.2	109.8
Cc1cc2nc(CSc3nc(-c4ccccc4C)nc4cc(=O)[nH]n34)cc(=O)n2o1	-14.1	·	·	96.8
COC(=O)C1CCCN1S(=O)(=O)c1ccc(C)cc1 (stereo not drawn)	-17.6	93.9	90.2	100.6
CCCCNC(=O)Cn1c(=O)cc(C)c2c(C)nn(-c3cccc(Cl)c3C)c21	·	79.8	99.8	97.8
CN(C)CCCN1C(=O)C(=O)/C(=C(/O)c2ccc(S(=O)(=O)N(C)C)cc2)C1c1ccccc1 (stereo not drawn)	-10.9	91.0	95.3	101.2
Cc1cccnc1NC(=O)c1c(O)c2cc(F)cc3c2n(c1=O)C(C)CC3 (stereo not drawn)	9.9	68.3	61.4	107.8
O=C(NCCN1CCOCC1)c1c(O)c2ccccc2[nH]c1=O	-9.8	97.1	77.9	·
O=C(O)/C=C/c1ccc(-c2ccc(Br)cc2)o1	·	89.4	81.3	104.3
Cc1ccc(CC2(O)CC(C)N(C)CC2C)cc1 (stereo not drawn)	3.9	98.1	101.8	·
O=C(Cc1n[nH]c(=O)c2ccccc12)N1CCCc2ccccc21	3.2	108.7	89.2	·
NC(=O)Cn1cnc2nc(N3CCCC3)sc2c1=O	-29.8	·	·	99.5
O=C(Nc1ccccc1)C1CCN(c2nccn3nc(-c4ccccc4)cc23)CC1	-21.2	·	·	103.7
COc1ccc(Nc2nc(-c3ccccc3)c3cc(Br)ccc3n2)cc1	-7.2	96.9	74.8	108.3
Cc1ccc(Cn2cc3c(n2)-c2c(oc(C(=O)NCCCN4CCCCCC4)c2C)CC3)cc1	·	97.7	81.3	108.1
CCOC(=O)/C=C\c1cn(-c2ccccc2)nc1-c1ccccc1	-32.0	99.5	86.1	·
Cc1ccc(CNc2nc3c(c(=O)n(C)c(=O)n3C)n2Cc2ccc(Cl)cc2)cc1	-28.8	96.8	81.2	108.4
CSC(=Nc1ccccc1C(F)(F)F)N1CCCC1	-4.9	93.0	93.5	101.4
CCn1nc(NC(=O)c2cccs2)c2cc3ccccc3nc21	-108.2	34.6	50.0	96.0
COCc1c(C(=O)Nc2ccc(F)cc2)oc2ccccc12	-28.1	90.2	90.0	·
CCN1C(=O)CC(n2c(C)nc3ccccc32)C1=O (stereo not drawn)	-3.3	101.7	72.6	105.9
Cc1ccc(-c2c(NCc3ccccc3Cl)c(=O)c2=O)cc1	-2.6	·	·	103.6
O=C(Cn1cc(CO)c2ccccc21)Nc1ccc(F)cc1	-22.3	82.1	75.6	102.0
CC(C)CNC(=O)/C=C/c1ccc2c(c1)OCO2	-30.8	97.6	92.8	·
CC1(C)CC(NC2=NCCCCC2)CC(C)(C)N1	-16.5	110.7	96.5	·
CCS(=O)(=O)N1CCN(Cc2ccccc2)CC1	-18.5	111.8	101.9	96.4
O=C1CC(N(C(=O)c2ccco2)c2cccc(Cl)c2)C(=O)N1c1cccc(Cl)c1 (stereo not drawn)	-4.3	105.3	79.3	106.4
O=C(Cn1cnc2ccccc21)OCC(=O)c1ccc(Cl)s1	-0.8	104.1	85.2	·
Cc1cc2nc(-c3ccc(OCc4ccc(F)cc4)cc3)cc(C(F)(F)F)n2n1	-16.2	92.5	85.1	108.8
CC1(C)CC(NC(=S)NC2CC2)CC(C)(C)N1	1.8	95.7	107.6	97.1
CCOc1ccc(CCNC(=O)c2ccc(-c3nc(CSc4ccccc4)c(C)o3)cc2)cc1	·	120.6	84.8	105.3
O=S(=O)(c1ccccc1)c1cccc(S(=O)(=O)N2CCOCC2)c1	·	102.6	92.6	102.2
COc1ccccc1C(=O)NCc1nnc(SCC(=O)Nc2cccc(Cl)c2)n1C	-12.3	103.8	83.8	103.3
Cc1ccc(NC(=O)CSCC(=O)O)cc1	-7.2	93.2	85.8	97.6
